Source: PubChem
KCNQ2 pot = potentiators of rat KCNQ2 potassium channel; B-score at 10 µM; AID 2239, 2010; CHO-K1 KCNQ2, FluxOR thallium flux fluorescence; active compounds read high; Potassium voltage-gated channel subfamily KQT member 2 (Rattus norvegicus), O88943; 310,000 tested, 0.54% active;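 active means fluorescence ratio B-score at least 3 SD of library B-scores, with initial fluorescence B-score within 3 SD, cut at about 5.3 in these data; same plate scores as AID 2156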;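 further: B-score of peak minus minimum over baseline fluorescence ratio after K+ and Tl+ stimulus; positive B-score means potentiation of KCNQ2 with more thallium influx and brighter signal; only the inactives scoring about 0 or higher are listed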
Target sequence (O88943 whole entry, looked up): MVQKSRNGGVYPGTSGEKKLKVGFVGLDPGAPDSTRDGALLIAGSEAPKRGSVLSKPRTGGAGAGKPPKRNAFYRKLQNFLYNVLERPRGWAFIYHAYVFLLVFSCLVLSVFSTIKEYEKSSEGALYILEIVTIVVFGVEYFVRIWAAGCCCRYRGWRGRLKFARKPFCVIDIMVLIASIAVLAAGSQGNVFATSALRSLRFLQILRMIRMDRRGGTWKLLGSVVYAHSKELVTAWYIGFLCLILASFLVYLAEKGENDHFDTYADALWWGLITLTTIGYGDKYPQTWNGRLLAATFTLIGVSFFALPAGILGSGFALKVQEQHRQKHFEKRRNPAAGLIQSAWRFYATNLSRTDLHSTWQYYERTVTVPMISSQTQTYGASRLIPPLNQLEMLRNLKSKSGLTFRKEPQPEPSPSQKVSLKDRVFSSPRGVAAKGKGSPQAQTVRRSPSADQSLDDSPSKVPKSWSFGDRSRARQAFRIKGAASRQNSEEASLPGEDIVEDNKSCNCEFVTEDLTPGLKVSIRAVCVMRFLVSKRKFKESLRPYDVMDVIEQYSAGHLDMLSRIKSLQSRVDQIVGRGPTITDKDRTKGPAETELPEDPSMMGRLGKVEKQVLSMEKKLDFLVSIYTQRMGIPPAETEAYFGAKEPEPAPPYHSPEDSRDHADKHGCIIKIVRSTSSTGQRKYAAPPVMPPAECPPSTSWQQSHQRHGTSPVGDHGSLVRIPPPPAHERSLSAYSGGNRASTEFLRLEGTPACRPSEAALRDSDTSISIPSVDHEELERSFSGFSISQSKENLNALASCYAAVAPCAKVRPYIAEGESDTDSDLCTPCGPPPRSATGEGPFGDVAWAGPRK
KCNQ2 pot baseline = second read-out of KCNQ2 pot, no call of its own (marks repeat the call); B-score; compound at 10 µM; measured here: initial fluorescence intensity artifact check;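 brightness before thallium and not channel activity; 0 = typical well and far values either way flag optical interference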
* hit, by the source's call. The list is partial, so the mix of outcomes need not match the whole.

Molecule	KCNQ2 pot	KCNQ2 pot baseline
Cc1ccc2occ(C(c3nnnn3Cc3ccccc3)N3CCOCC3)c(=O)c2c1 (stereo unspecified)	0.62	1.3
CCCCCCCCCCCCN1[C@@H](CC(C)=O)c2cc(F)ccc2S1(=O)=O	0.08	-0.21
O=C(CSc1nnc2ccc(-c3ccccn3)nn12)NCC1CCCO1 (stereo unspecified)	0.67	0.89
COc1ccc(C(=O)/C=C2\Sc3ccccc3N2C)cc1	1.2	-0.14
COc1ccc(CC(=O)OC2CCCN(C)C2)cc1 (stereo unspecified)	0.03	0.21
O=c1c2c(-c3cccs3)csc2[nH]c(=S)n1-c1ccccc1	1.28	-0.03
O=C(N/N=C/c1ccc(-c2ccccc2)o1)c1ccccc1O	4.95	-0.32
COc1ccc(OC)c(NS(=O)(=O)c2cc3c4c(c2)CCN4C(=O)CC3)c1	0.02	0.24
Cc1ccc(C(=O)COC(=O)CCc2nc3ccccc3[nH]c2=O)cc1C	0.57	-2.36
O=C(O)c1cccc(Cn2cc(Cl)cn2)c1	0.13	-0.04
Cc1cc2nc(C(F)(F)F)[nH]c(=O)n2n1	1.11	0.81
CN(C(=O)CC1C(=O)NCCN1Cc1ccc(F)cc1)C1CCOCC1 (stereo unspecified)	0.14	1.9
Cn1cnnc1SCC(=O)NNC(=O)COc1ccc(Br)cc1	0.66	1.35
COc1ccccc1N(C)S(=O)(=O)c1ccc(C(=O)OCC(=O)N(C(C)C)C(C)C)cc1	1.97	-0.19
Cc1ncc(C[n+]2csc(C)c2C)c(N)n1	0.03	-0.46
Cc1ccc2cc(C(c3nnnn3Cc3ccccc3)N3CCc4ccccc43)c(=O)[nH]c2c1 (stereo unspecified)	1.47	0.45
CN(CC(=O)Nc1cccc(F)c1)C(=O)CSc1ccccc1	1.78	1.01
Cc1nn(C(=O)N2CCCCC2)c(C)c1CN1C(=O)c2ccccc2C1=O	0.88	-0.09
O=C(c1cccc(C(F)(F)F)c1)C1CCCN(Cc2cccn2-c2ncccn2)C1 (stereo unspecified)	2.41	-0.02
O=C(OCC(=O)N1CCOCC1)c1ccc2[nH]c3c(c2c1)CCCC3	1.58	-1.11
CC(C)C(=O)Nc1c(O)c2ccccc2[nH]c1=O	1.11	-0.43
Cc1sc(NC(=O)CN2CCOCC2)c(C#N)c1C	0.14	0.09
CC1(C)NC(=O)N(CC(O)CN(c2cccc([N+](=O)[O-])c2)S(=O)(=O)c2ccccc2)C1=O (stereo unspecified)	0.85	2.02
O=C(NCCCN1CCCC1=O)c1cccc(S(=O)(=O)Nc2ccc(Br)cc2)c1	0.39	-0.01
O=C(O)CN1C(=O)/C(=C/c2cccc(Cl)c2)Oc2ccccc21	0.67	-1.32
N#Cc1c(-c2ccc(F)cc2)cc(-c2cccnc2)nc1N	0.19	-1.11
O=[N+]([O-])C(C1CCS(=O)(=O)C1)C1CCS(=O)(=O)C1 (stereo unspecified)	1.06	-0.58
C=CCn1c(SCN2C(=O)c3ccccc3C2=O)nc2ccc(Cl)cc2c1=O	3.81	0.02
Cc1ccc(CSc2nnc(SCC(=O)N/N=C/c3ccc(C(=O)O)cc3)s2)cc1	0.41	0.03
CCN(CC)CCCNC(=O)c1cn(-c2cccc(OC)c2)c(=O)c2ccccc12	2.18	0.4
Cc1cccn2c(=O)c(C=O)c(Nc3ccc(S(N)(=O)=O)cc3)nc12	0.21	0
Cc1ccc(-c2noc(CN(C(=O)c3ccc4c(c3)OCO4)C(C)C)n2)cc1	0.43	0.35
Oc1ccccc1C=NCCN=Cc1ccccc1O	0.02	0.36
CSc1nc(S(=O)(=O)c2ccccc2)c(Cl)s1	1.24	0.01
Cn1nc(C(F)(F)F)c2cc(C(=O)O)sc21	1.3	-0.62
COc1ccc(C(CC(=O)N2CCOCC2)c2c(O)cc(OC)cc2OC)cc1 (stereo unspecified)	2.71	0.04
CC(=O)N(C)N(C)c1cc(C)nc(N)n1	0.83	-1.51
COCCCNC(=O)C1CC(=O)N(CCc2ccc(F)cc2)C1 (stereo unspecified)	0.77	-2.47
CCN1CCN(C2=NC(=O)/C(=C/c3ccc(C)o3)S2)CC1	0.9	0.48
CNCCCOc1ccc(C)cc1Br	0.76	1.18
CSc1ccc(C2NC(=O)c3c(sc4c3CCN(C)C4)N2)cc1 (stereo unspecified)	0.65	0.37
Cc1ccc(-n2c(=O)c(C#N)cc3c(=O)n4ccccc4nc32)cc1C	0.11	0.5
CCOC(=O)N1CCN(C(=O)c2cn(C)c3ccc(S(=O)(=O)N(C)C4CCCCC4)cc3c2=O)CC1	0.9	-0.69
CSc1ccccc1NC(=O)CN(C)C(=O)c1ccc2c(c1)OCCO2	0.74	0.05
Cc1ccc(NC(=O)COC(=O)CNC(=O)c2ccc3ccccc3c2)c([N+](=O)[O-])c1	0.91	0.49
COCCNC(=O)C(NC(=O)C1CCCCC1)C(C)C (stereo unspecified)	0.1	0.9
COc1ccc(Nc2nc(N)nc(CSc3nc(C)cc(C)n3)n2)cc1	0.3	-0.24
O=C(NCCN1CCN(c2ccccc2)CC1)Nc1ccccc1Br	1.6	-1.48
COc1ccccc1CNC(=O)N1CCN(S(=O)(=O)c2ccc(Cl)cc2)CC1	0.45	2.75
CCC(CC)N1CCN(S(=O)(=O)c2ccc(OC)cc2)CC1	0.77	0.22
CCCSc1nc(N2CCOCC2)c2c(c1C#N)CC(C)(C)SC2	1.09	-0.91
CN(C(=O)COc1ccc([N+](=O)[O-])cc1)C1CCS(=O)(=O)C1 (stereo unspecified)	0.03	0.3
CCOc1ccc(C(=O)COc2ccc(NC(C)=O)cc2)cc1	0.13	-0.16
COc1cc(C(=S)N2CCOCC2)ccc1OS(=O)(=O)c1ccccc1[N+](=O)[O-]	1.39	-0.39
CCCn1nnc(NC(=O)C(C)Oc2ccc(Cl)cc2Cl)n1 (stereo unspecified)	0.84	0.62
CC(=O)Nc1nnc(SCC(=O)c2ccc(F)cc2)s1	0.01	0.09

Reformatted field by field: 4 of the compounds above
> CN(C(=O)COc1ccc([N+](=O)[O-])cc1)C1CCS(=O)(=O)C1 (stereo unspecified)
  KCNQ2 pot = 0.03	KCNQ2 pot baseline = 0.3

> CCOc1ccc(C(=O)COc2ccc(NC(C)=O)cc2)cc1
  KCNQ2 pot = 0.13	KCNQ2 pot baseline = -0.16

> COc1cc(C(=S)N2CCOCC2)ccc1OS(=O)(=O)c1ccccc1[N+](=O)[O-]
  KCNQ2 pot = 1.39	KCNQ2 pot baseline = -0.39

> CCCn1nnc(NC(=O)C(C)Oc2ccc(Cl)cc2Cl)n1 (stereo unspecified)
  KCNQ2 pot = 0.84	KCNQ2 pot baseline = 0.62

Remaining list, next part.
Molecule	KCNQ2 pot	KCNQ2 pot baseline
Cc1cc(N2C(=O)CCC2=O)ccc1NC(=O)c1cccs1	1.01	-1.28
CC(C)n1cc(-c2nc(C(=O)NN)cs2)c(=O)n(Cc2ccccc2)c1=O	1.96	-3.62
O=C(Nc1cccc([N+](=O)[O-])c1)C1CCN(C(=O)Cc2ccccc2)CC1	0.26	-1.26
CN(C)c1nc(NN)nc(Nc2ccc(F)cc2)n1	2	-2.44
Cc1sc2ncn(CC(=O)OCC(=O)NC(C)(C)C)c(=O)c2c1C	0.06	0.84
O=C(Nc1ccc2[nH]c3c(c2c1)CCCC3)c1ccco1	2	3.54
C=CCn1c(SCC(=O)OCC)nc(C(F)(F)F)cc1=O	2.06	0.19
Cn1cc(-c2nnnn2-c2ccccc2)c(=O)c2ccccc21	1.02	0.23
Cc1ccc(-c2nc(=S)c3c(n2Cc2cccnc2)CC(C)(C)OC3)cc1	0.08	-1.38
CC(C(=O)NCCN1C(=O)S/C(=C\c2cccnc2)C1=O)N1C(=O)c2ccccc2C1=O (stereo unspecified)	0.08	0.52
CSc1ccccc1C(=O)C1CCCN(Cc2c(C)n(C)n(-c3ccccc3)c2=O)C1 (stereo unspecified)	1.47	2.68
O=C(NCc1ccccn1)c1cccc([N+](=O)[O-])c1	0.07	-1.43
Oc1ccc(CN2CCc3ccccc3C2)c2cccnc12	12.8*	-3.15*
CCc1cc2cc(C)cc(C)c2nc1SCC(=O)Nc1cc(C)on1	0.27	-0.1
CCOC(=O)N1CCc2c(sc(NC(C)=O)c2C(N)=O)C1	1.75	-1.69
Cc1sc2ncnc(SCC(=O)N3CCCC3)c2c1C	2.44	-1.44
Cc1scc(C(=O)Nn2cnnc2)c1-c1ccccc1	0.91	0.03
CC[C@H](C)NC(=O)c1ccc(Cn2c(=S)[nH]c3c([nH]c4ccc(OC)cc43)c2=O)cc1	0.14	0.22
COc1cccc(OCC(=O)N2CCC3(CC2)CC(=O)c2ccccc2O3)c1	0.71	2.21
Cc1ccc(SCc2cc(=O)[nH]c(N3CCN(Cc4ccccc4)CC3)n2)cc1	3.21	-0.99
Cc1ccc(Oc2ccc(NC(=O)c3ccco3)cc2)cc1	13.9*	0.01*
CC(C)C[C@H](NC(=O)c1nc[nH]c1C(=O)N[C@@H](CC(C)C)C(=O)OCc1ccccc1)C(=O)OCc1ccccc1	1.48	-0.66
CCCc1nnc(NC(=O)CCC(=O)NC2CC2)s1	0.73	-1.14
CCC1(CC)NC(=O)N(CC(=O)OCC(=O)c2ccccc2OC)C1=O	2.36	-0.92
N#C/C(=C\c1ccc(-c2ccc([N+](=O)[O-])cc2)o1)C(=O)Nc1nc(-c2cccs2)cs1	0.68	-0.07
CCOc1cc(N2CCOCC2)c(OCC)cc1NC(=O)CN1CCCC1	0.49	-1.52
Cc1c(CCO)c(=O)[nH]n1S(=O)(=O)c1ccccc1	1	1.28
CC(C)C1Nc2c(O)cc(Cl)c([N+](=O)[O-])c2C2C=CCC21 (stereo unspecified)	1.27	-0.84
Cc1cn(C)c(=O)n(C)c1=O	0.19	-1.07
Cn1c(-c2ccco2)n[nH]c1=S	1.47	0.01
O=C(O)c1ccccc1-c1ccccc1C(=O)NCCCO	1.16	-0.46
CC1CCCCN1CCCNC(=O)c1c(O)nc2ccccn2c1=O (stereo unspecified)	1.64	1.04
COc1ccc(CCC(=O)NNC(=O)Nc2ccc(C(C)=O)cc2)cc1	1.92	-0.33
Cc1ccc(Cl)cc1NS(=O)(=O)c1cn(C)nc1C	0.82	-2.72
CCOc1ccccc1-n1c(SCC(=O)N(CC)CC)nnc1-c1ccccn1	1.21	-1.73
COc1cc(O)c2c(=O)c3c(OC)c(O)ccc3oc2c1	0.45	-1.51
CCCc1cc(=O)[nH]c(SCCc2ccccc2)n1	1.43	-0.84
Cc1ccccc1OCCC(=O)Nc1ccc(N2CCOCC2)cc1N1CCOCC1	1.05	0.33
CCCCOC(=O)c1ccc(NC(=O)c2ccoc2C)cc1	0.79	-0.14
O=C(Nc1ccc(Oc2ncccn2)cc1)c1ccco1	1.81	-1.07
COCCN(C(=O)c1snc(C(N)=O)c1N)C(C(=O)NC1CCCCC1)c1ccc(OC)c(OC)c1 (stereo unspecified)	1.97	-0.44
Cc1c(NC(=O)C(C)OC(=O)CCc2ccccc2)c(=O)n(-c2ccccc2)n1C (stereo unspecified)	0.29	0.01
COc1ccc(C2=NOC(CNC(=S)N3CCOCC3)C2)cc1 (stereo unspecified)	0.16	0.48
CC(=O)/C=C/c1ccc(C)o1	1.5	1.09
COc1ccc(C(=O)OCC(=O)NC(=O)NC(C)C)cc1OC	1.61	-0.3
O=C(O)c1ccc(Cl)c(NC(=S)NC(=O)c2cccc(COc3ccccc3)c2)c1	3.62	-1.34
CSCc1ccc(C(=O)NC(C)c2ccc(-n3ccnc3)cc2)cc1 (stereo unspecified)	0.05	-0.01
COC(=O)N/N=C/c1c(C)nn(-c2cccc(Cl)c2)c1Cl	0.97	-1.18

Compound profiles (already shown). Screens in order: KCNQ2 pot, KCNQ2 pot baseline
`CC(C)C[C@H](NC(=O)c1nc[nH]c1C(=O)N[C@@H](CC(C)C)C(=O)OCc1ccccc1)C(=O)OCc1ccccc1` as listed: 1.48, -0.66
`COCCNC(=O)C(NC(=O)C1CCCCC1)C(C)C` (stereo unspecified) as listed: 0.1, 0.9

(next part)
Molecule	KCNQ2 pot	KCNQ2 pot baseline
COc1ccc(C)cc1S(=O)(=O)n1ccnc1C	0.24	1.29
O=C(Nc1ccc2nc(-c3ccccc3)oc2c1)c1ccco1	0.43	-1.37
Cc1cc(N2C(=O)C(O)=C(C(=O)c3ccco3)C2c2ccc(O)cc2)no1 (stereo unspecified)	1.12	-0.01
Cn1c(C23CC4CC(CC(C4)C2)C3)n[nH]c1=S	0.19	0.56
Cc1ccc(NN=Nc2nc3c([nH]2)c(=O)n(C)c(=O)n3C)cc1	1.02	1.08
CCc1nnc(NC(=O)CSCc2cc(=O)n3ccsc3n2)s1	0.57	-0.86
COc1cc(OC)cc(-c2nnc(SCC(=O)N3CCCC3)o2)c1	0.45	2.73
NC(=O)C1(N2CCCCC2)CCN(C(=S)Nc2ccccc2)CC1	0.68	-1.04
COc1ccc(Cn2c(C)cc3c(c2=O)C(c2cccs2)C(C#N)=C(N)O3)cc1OC (stereo unspecified)	1.21	1.31
CC(Oc1ccc(Cl)cc1Cl)C(=O)NC1CCSC1=O (stereo unspecified)	0.32	0.57
COc1ccc(NC(=O)C(NC(=O)c2ccc(=O)[nH]c2)c2ccccc2)cc1 (stereo unspecified)	0.18	-0.47
Cc1cc(C)c2nc(N3CCN(C(=O)c4ccco4)CC3)sc2c1	0.52	-3.6
COc1ccc(-n2ncc3c(NCCCN4CCOCC4)ncnc32)cc1	1.45	0.98
